TRPML1 blocker = inhibitors of human TRPML1 channel; activity change, negative = inhibition, % (test concentration not listed); TRPML1-inducible cells, Ca2+ dye fluorescence, FDSS; stronger effect = lower value; inhibition of EC80 agonist-evoked calcium signal; actives 0.02% (n = 390,000); Q9GZU1; in the data active means activity change below about -50%; inconclusive means about -30% to -50%; inactive means above about -30%;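 also: stimulus is agonist 54-4 at its EC80 concentration; % is scaled to controls: 0 for no effect and ±100 for the full control effect; compound concentration not given in the record; the text of the record puts the active cut at -80%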
Target sequence (Q9GZU1 whole entry, looked up): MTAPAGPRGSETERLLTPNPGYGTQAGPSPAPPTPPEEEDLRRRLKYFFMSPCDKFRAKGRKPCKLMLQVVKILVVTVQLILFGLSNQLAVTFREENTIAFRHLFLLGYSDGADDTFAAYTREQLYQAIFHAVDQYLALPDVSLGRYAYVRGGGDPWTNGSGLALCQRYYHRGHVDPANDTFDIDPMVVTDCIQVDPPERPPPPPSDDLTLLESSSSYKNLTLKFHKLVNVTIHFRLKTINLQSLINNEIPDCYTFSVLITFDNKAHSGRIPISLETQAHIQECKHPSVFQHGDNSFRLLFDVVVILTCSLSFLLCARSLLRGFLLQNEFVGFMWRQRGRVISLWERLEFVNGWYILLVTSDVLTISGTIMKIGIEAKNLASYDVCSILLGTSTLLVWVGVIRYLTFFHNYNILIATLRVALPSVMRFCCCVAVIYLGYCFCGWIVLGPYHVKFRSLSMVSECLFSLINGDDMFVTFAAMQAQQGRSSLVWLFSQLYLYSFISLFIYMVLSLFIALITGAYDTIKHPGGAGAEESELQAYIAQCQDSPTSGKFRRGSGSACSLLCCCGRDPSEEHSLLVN
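Calcium fluorescence in TRPML1-DL cells induced overnight with Tet: a 110 s read after compound pin addition, then a 110 s antagonist read after challenge with 54-4 at 4 uM final (EC80).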
TRPML1 ag = activates the human TRPML1 channel; Q9GZU1; TRPML1-expressing cells, Ca2+ dye fluorescence, FDSS; host cell line not named in the record; reference of the full effect not given here; activation, % (concentration not given with the values); actives 0.12% (n = 410,000); AID 624414; in the data active = activation above about 50%; inconclusive = about 30% to 50%; inactive = below about 30%; also: 0% is about no effect; the text of the record puts the active cut at 80%
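Tet-induced TRPML1-DL cells, 1,500 per well, cultured overnight, were loaded with a no-wash Ca2+ dye for 45–90 min. Calcium fluorescence was recorded on the FDSS for 110 s after compound addition, before the EC80 agonist (4 uM 54-4) was added.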
Starred values were filed as active, the others as inactive. Not all compounds are listed (hit frequency here may not be typical).

The line under a structure holds: TRPML1 blocker, TRPML1 ag
- COc1ccc(Nc2nnc(-c3ccc(C)c(S(=O)(=O)NCc4nc5ccccc5[nH]4)c3)c3ccccc23)cc1
 : 17, 1.1
- COc1ccccc1NC(=O)Cn1c(=O)n(Cc2ccc3c(c2)OCO3)c(=O)c2oc3ccccc3c21
 : -14, 0.8
- CCOc1ccc(C2CC(=O)n3nc(-c4ccc(C)cc4)nc3S2)cc1OC (stereo not given)
 : 26, -0.6
- COc1ccc(NC(=O)CCCN2C(=O)COc3ccc(C)cc32)cc1OC
 : 2, 1.6
- Cc1ccc(Cl)cc1NS(=O)(=O)c1ccc2oc(=O)c3ncn(C)c3c2c1
 : -16, 1.6
- CC(C)N(Cc1ccccc1)C(=O)c1cc2ccc3cccnc3c2[nH]1
 : 14, 2.5
- O=C(NCc1ccc(Cl)cc1)C(=O)NCC(c1cccs1)S(=O)(=O)c1ccc(Cl)cc1 (stereo not given)
 : 62, 0.8
- O=c1cc(COc2ccccc2Cl)nc2scc(-c3ccccc3)n12
 : -10, 0.8
- CSc1ccc(CCNc2ncnc3onc(-c4ccc(Cl)cc4)c23)cc1
 : 43, 0.5
- Cc1ccc2c(c1)N(C(=O)N1CCC(C(=O)NCCc3ccccc3)CC1)CC(C)O2 (stereo not given)
 : 17, -0.6
- Cc1ccc(NC(=O)c2cccc(NC(=O)N3CCSc4ncccc43)c2)cc1Cl
 : -16, 1.0
- COc1ccccc1C(=O)NC(=O)Nc1ccc(-c2cc(C(F)(F)F)nn2-c2ccccc2)cc1
 : -4, 1.1
- Cc1cccc(-c2nc(S(=O)(=O)c3ccc(Cl)cc3)c(N3CCCCCC3)o2)c1
 : 8, -0.2
- O=C(c1ccc2c(c1)N(Cc1ccccc1F)C(=O)c1ccccc1S2(=O)=O)N1CCOCC1
 : 16, -0.6
- CCOC(=O)CSc1nc2cc3c(cc2c(=O)n1CCCC(=O)NCCc1ccc(OC)c(OC)c1)OCO3
 : -21, 2.7
- CCOC(=O)N1CCc2c(sc3c2c(=O)n(-c2ccc(CC)cc2)c(=O)n3C)C1
 : 37, -0.6
- CCC1CN(CC(=O)NCc2cccc(Br)c2)c2ccccc2S1 (stereo not given)
 : -6, 3.5
- CCOc1ccc(Sc2cc(C(=O)NC(C)CC)c3ccccc3n2)cc1 (stereo not given)
 : 12, 14
- CCOc1ccccc1CNC(=O)c1ccc(NC(=O)N2CC(C)Sc3ccccc32)cc1 (stereo not given)
 : 40, 1.9
- Cc1ccc(NC(=O)[C@H]2O[C@@H]3OC(C)(C)O[C@@H]3[C@H]3OC(C)(C)O[C@H]32)cc1F
 : 7, 2.2
- COC(=O)c1cc2oc3ccccc3c2n1CC(=O)Nc1ccc(OC)c(OC)c1OC
 : -13, -1.0
- Cc1ccc(NC(=O)c2c(NC(=O)c3ccc(F)cc3)sc3c2CCCC3)cc1C
 : 6, 0.7
- COC(=O)CN1C(=O)CSc2ccc(S(=O)(=O)N3CCOCC3)cc21
 : -11, 0.3
- CCOc1cc2c(cc1OCC)C(CC(=O)OC)N(C(=O)Nc1cc(OC)ccc1OC)CC2 (stereo not given)
 : 7, 0.6
- CC(C)Oc1ccc(CNC(=O)CCn2c(=O)c3cccn3c3ccc(F)cc32)cc1
 : 3, 3.3
- Cc1oc2ncn(CC(C)C)c(=O)c2c1C(=O)Nc1ccc(Cl)cn1
 : -4, -0.7
- O=C(Cn1ncc2c3ccccc3n(Cc3ccc(Cl)cc3)c2c1=O)NCCC1=CCCCC1
 : 3, -0.5
- CCOc1ccc(CNC(=O)c2cccc(NC(=O)N3CCSc4ncccc43)c2)cc1
 : -15, 0.2
- COc1ccc(-n2cc(-c3ccccc3)nc2SCC(=O)Nc2ccccc2)cc1Cl
 : 16, -0.4
- CCCN(C(=O)Cn1ncc2c1-c1ccccc1OC2)c1cccc(C)c1
 : -14, 2.2
- COc1cccc(-n2c(=O)c3cc(OC)c(OC)cc3n(CC(=O)Nc3ccc(F)cc3)c2=O)c1
 : -12, -0.3
- CCN(CC)S(=O)(=O)c1nnc(NC(=O)c2ccc(C)cc2)s1
 : -15, -0.8
- Cc1cccc(N2CCN(S(=O)(=O)c3csc(C(N)=O)c3)CC2)c1C
 : -11, 0.6
- Cc1ccc(CSC2=Nc3ccccc3C3=NC(CCC(=O)NCCc4ccccc4)C(=O)N23)cc1 (stereo not given)
 : 3, 1.3
- CC1=C(C(=O)NCCc2ccc(Cl)cc2)C2(CCCCC2)OC1=O
 : 8, 0.7
- Cc1ccc(C)c(N2CCN(S(=O)(=O)c3ccc(C4CCCCC4)cc3)CC2)c1
 : -2, 1.8
- COc1ccc(NC(=O)N2CCOc3ccc(Cl)cc32)cc1
 : -23, 2.1
- Cc1ccc(Nc2cc(C(=O)NCc3cccs3)c3ccccc3n2)c(C)c1
 : 41, 2.0
- CCC(=O)N1CCc2cc(CNC(=O)Nc3cc(C)ccc3C)ccc21
 : -2, 1.3
- COc1cccc(-c2cc(C(=O)Nc3cc(Cl)ccc3O)on2)c1
 : 4, -0.3

Rewritten with bars between the fields: entries from further up
smiles | TRPML1 blocker | TRPML1 ag
Cc1ccc(C)c(N2CCN(S(=O)(=O)c3ccc(C4CCCCC4)cc3)CC2)c1 | -2 | 1.8
COc1ccc(NC(=O)N2CCOc3ccc(Cl)cc32)cc1 | -23 | 2.1
Cc1ccc(Nc2cc(C(=O)NCc3cccs3)c3ccccc3n2)c(C)c1 | 41 | 2.0
CCC(=O)N1CCc2cc(CNC(=O)Nc3cc(C)ccc3C)ccc21 | -2 | 1.3

(continued)
The line under a structure holds: TRPML1 blocker, TRPML1 ag
- CC(NC(=O)c1ccc(CSc2nc3ccncc3n2Cc2ccc(F)cc2)cc1)c1ccccc1 (stereo not given)
 : 1, 3.1
- CC(C)NC(=O)CCCN1C(=O)CCn2nc(-c3cccn3C)cc21
 : 10, 0.7
- Cc1cccc(N2CCN(C3(c4ccccc4)C(=O)c4ccccc4C3=O)CC2)c1C
 : -1, 2.1
- COc1cc(NC(=O)CCCc2nnc3n(C)c(=O)c4sccc4n23)cc(OC)c1OC
 : -22, 0.2
- CCN1CCc2c(sc(NC(=O)c3ccc(S(=O)(=O)N(C)C4CCCCC4)cc3)c2C(N)=O)C1
 : -3, 0.2
- O=C(CCCCn1c(=O)c2ccccc2n(CC(=O)Nc2cccc(F)c2)c1=O)NCc1ccccc1Cl
 : 0, -1.0
- Cc1cccc(N2CCN(C(=O)c3cc4c(=O)oc5ccccc5c4s3)CC2)c1C
 : 26, -0.2
- Cc1ccc(Cn2c(CO)cnc2SCC(=O)NCc2ccccc2Cl)cc1
 : 55, -1.1
- CC(=O)c1cccc(Nc2ccc3cc(S(=O)(=O)N4CCCC4)ccc3n2)c1
 : -5, 1.7
- CC1=C(C(=O)Nc2cc(C)ccc2C)C2(CCCCCC2)OC1=O
 : -2, 1.8
- Cc1c(Cl)cccc1NC(=O)CSc1ccc(-c2ccccn2)nn1
 : -2, 1.8
- Cc1coc2c1c(C)cc1oc(=O)c(CC(=O)NCc3ccc(Cl)cc3)c(C)c12
 : 11, 0.5
- Cc1ccc(C)c(-c2[nH]c3c(c2-c2c(-n4cccc4)n(C)c(=O)[nH]c2=O)c(=O)[nH]c(=O)n3C)c1
 : 5, -0.5
- COCC(=O)N1CCc2cc(OC)c(OC)cc2C1COc1ccc2c(C)cc(=O)oc2c1 (stereo not given)
 : 12, -1.0
- Cc1oc(-c2cccc(Cl)c2)nc1CN1CCC(C(=O)NCCCN2CCN(c3ccc(F)cc3)CC2)CC1
 : 9, 2.9
- Cc1ccc(C(=O)NCC(=O)OCc2cc(=O)n3nc(C4CC4)sc3n2)cc1
 : -3, 0.3
- Cc1c(C(=O)Nc2cccc(F)c2)oc2c1-c1nn(Cc3c(F)cccc3Cl)cc1CC2
 : 24, 2.7
- COc1ccc(CNC(=O)CSCc2cnn(-c3ccccc3)c2-n2cccc2)cc1OC
 : 5, 0.8
- CC(C)Cn1c(=O)c2ccccc2n2c(CCC(=O)Nc3ccc(F)cc3)nnc12
 : 22, 1.6
- O=C(Nc1cccc(Cl)c1)c1cc(S(=O)(=O)N2CCCc3ccccc32)ccc1F
 : 50, 1.0
- CCOC(=O)c1ccc(NC(=O)CSc2nccn2-c2cc(C)cc(C)c2)cc1
 : 12, 3.0
- CCOC(=O)c1c(C)[nH]c(C)c1S(=O)(=O)N1CCCC(C(=O)Nc2ccc(OC)c(Cl)c2)C1 (stereo not given)
 : 3, -0.9
- N#Cc1ccc(OC(=O)c2cc(-c3ccc(Cl)cc3)on2)cc1
 : 2, -0.6
- CCCN1CCN(CC2=C(C(=O)OCC)C(c3ccc(OC(C)C)cc3)NC(=O)N2)CC1 (stereo not given)
 : 1, -0.2
- COc1ccc(NC(=O)Cn2c(=O)n(-c3ccccc3)c(=O)c3c4c(sc32)CCCC4)cc1
 : -9, -0.7
- CCc1nn(CC(=O)Nc2ccc(NC(C)=O)cc2)c(=O)c2cc3sccc3n12
 : -8, -0.4
- COc1ccc(CCNC(=O)c2cc(Nc3ccccc3)nc3ccccc23)cc1OC
 : -11, 0.7
- CCOC(=O)c1ccc(Nc2nc3nonc3nc2Nc2cccc(C)c2C)cc1
 : 37, -0.4
- Cc1cc(C)c2c(=O)cc(C(=O)Nc3ccc(S(=O)(=O)N(C)Cc4ccccc4)cc3)oc2c1
 : 21, 3.9
- CCC(Sc1ncnc2sc3c(c12)CCCC3)C(=O)OCC(C)C (stereo not given)
 : 12, 0.8
- CC(=O)c1c(C)n(-c2ccc(Cl)cc2)c2ccc(OC(=O)COc3ccccc3)cc12
 : -8, -0.4
- CC1CCN(S(=O)(=O)c2ccc3c(ccn3CCC(=O)NCc3ccccc3F)c2)CC1
 : 17, 3.1
- Cc1ccc2oc(=O)c3cc(C(=O)Nc4ccc(F)cc4F)sc3c2c1
 : 7, 0.2
- COc1cccc(NC(=O)c2oc3ccccc3c2NC(=O)c2ccccc2C)c1
 : -1, -0.1
- O=C(CSc1ncc(CO)n1Cc1ccc(Cl)cc1)NCc1ccc(F)cc1
 : 16, 0.8
- O=C1C(c2ccc(C(F)(F)F)cc2)=C(Nc2ccc(Cl)cc2)c2ccccc21
 : 9, -0.3
- O=C(COc1ccccc1F)Nc1nnc(SCc2cc(=O)n3ccccc3n2)s1
 : 15, 1.9
- O=C(c1ccc(F)cc1)n1nc(-c2cccnc2)nc1NCc1ccc(F)cc1
 : -9, -0.2
- CCOc1ccccc1NC(=O)c1c(NC(=O)C(C)Oc2ccc(Cl)cc2)sc2c1CCCCC2 (stereo not given)
 : 14, -1.2
- Cc1ccc(C)c(NC(=O)CN2C(=O)c3cccnc3Oc3ccc(C)cc32)c1
 : 8, 1.2
- Cc1cccc(NC(=O)C2CCC(CNS(=O)(=O)c3csc(C(N)=O)c3)CC2)c1C (stereo not given)
 : 10, -0.6
- COc1cc(OC)c(N(C)C(=O)Nc2cn(CC(C)C)c(=O)c3ccccc23)cc1Cl
 : -3, 2.1
- O=C(NCc1ccccc1)C1CCN(S(=O)(=O)Cc2ccccc2)CC1
 : -19, -0.2
- COc1ccccc1-n1ncc2c(=O)[nH]c(SCC(=O)Nc3ccc(Cl)cc3)nc21
 : 1, 1.2
- Cc1ccc(Nc2c(-c3ccccc3O)nc3cc(C)ccn23)cc1
 : 66, 2.3
- COc1ccc(CCNC(=O)c2c(O)nc3ccccn3c2=O)cc1OC
 : 6, -0.7
- COc1ccc(-c2cccc(NS(=O)(=O)c3cc(C(F)(F)F)ccc3Cl)c2)nn1
 : 10, 0.7
- COc1cc(-c2cc(OC)c3c(C)oc(C)c3c(=O)c2)ccc1OC(=O)c1ccccc1F
 : -8, 1.1
- CCOc1ccccc1NC(=O)CN1CCN(S(=O)(=O)c2ccc(Br)cc2)CC1
 : -13, -1.1
- COc1cccc(C(=O)NCC(c2ccc(N(C)C)cc2)N2CCc3ccccc32)c1 (stereo not given)
 : -21, 0.9
- Cc1csc2nc(COc3cccc(NC(=O)c4ccccc4F)c3)cc(=O)n12
 : 38, -0.6
- CCC(Cn1nnc2ccccc2c1=O)NC(=O)Nc1ccc(C)c(C)c1 (stereo not given)
 : -69*, 0.0
- COc1ccc(C(CC(=O)Nc2ccc(C(C)=O)cc2)N2Cc3ccccc3C2=O)cc1 (stereo not given)
 : -11, -0.2
- CC(CCc1ccccc1)NC(=O)Cn1ncc2c3ccccc3n(Cc3ccc(F)cc3)c2c1=O (stereo not given)
 : 4, -0.3
- Cc1c(C(=O)Nc2ccc(F)cc2F)nnn1-c1ccccc1Br
 : 43, 2.3
- CCN1CCN(c2nc3c(S(=O)(=O)c4ccc(Br)cc4)nnn3c3ccsc23)CC1
 : -16, 1.0

Molecules above that have bromine:
The line under a structure holds: TRPML1 blocker, TRPML1 ag
- CCC1CN(CC(=O)NCc2cccc(Br)c2)c2ccccc2S1 (stereo not given)
 : -6, 3.5
- CCOc1ccccc1NC(=O)CN1CCN(S(=O)(=O)c2ccc(Br)cc2)CC1
 : -13, -1.1
- Cc1c(C(=O)Nc2ccc(F)cc2F)nnn1-c1ccccc1Br
 : 43, 2.3
- CCN1CCN(c2nc3c(S(=O)(=O)c4ccc(Br)cc4)nnn3c3ccsc23)CC1
 : -16, 1.0
